Screening data as filed in PubChem BioAssay.
Biofilm kill mix: clotrimazole potentiators killing C. albicans biofilm, primary screen, 4-compound mixtures; actives 0.02% (n = 120,000); C. albicans biofilm persisters + clotrimazole, fluorescence viability; primary screen in compound mixtures of four per well; inhibition, % at 7.6 µM;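 active means inhibition above 30.3% in the primary screen of four-compound pools, then above 30% when the compound was retested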;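 further: compounds exposed to preformed 24 h biofilms for 48 h; the number belongs to the whole pool; some results filed as inactive read as strong as hits; inactives centre near 12; 0% = biofilm with clotrimazole alone and 100% = kill control; retested singly at about 60 µM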
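System: C. albicans CAF4-2 wild-type biofilms; Medium: RPMI/MOPS medium, pH 7.0; Reagent: Clotrimazole, 50 µg/mL; Times: biofilm formation 24 h, compound exposure 48 h, 37 °C; Detection: 2-h Alamar Blue fluorescence, 535/590 nm excitation/emission; Evaluation: percent inhibition of biofilm viability.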
Starred values were filed as active, the others as inactive.

SMILES	Biofilm kill mix
CCOC(=O)C1=C(C)N(CCCCCC(=O)O)C(=O)NC1c1ccccc1Cl (stereo unspecified)	15
CCC(C)NS(=O)(=O)c1ccc(NC(C)=O)cc1 (stereo unspecified)	8
O=C1C2C(C(=O)N1/N=C/c1ccc(N3CCCCC3)o1)C1C=CC2C12CC2 (stereo unspecified)	6
CCOc1cc(N2CCOCC2)c(OCC)cc1NC(=O)COc1ccc2ccc(=O)oc2c1	-1
O=C(COCC(=O)N/N=C/c1ccc(F)cc1)N/N=C/c1ccc(F)cc1	17
Cc1cc(NC(=O)COc2cccnc2[N+](=O)[O-])no1	-10
C=CCn1c(COc2ccc(F)cc2)nnc1SCC(=O)Nc1cccc(S(N)(=O)=O)c1	11
Cc1onc(-c2c(F)cccc2Cl)c1C(=O)N1CCSCC1	18
COCCNC(=O)/C(C#N)=c1\s/c(=C\c2ccccc2OC(F)F)c(=O)n1Cc1ccccc1	-1
CCOC(=O)c1sc(Nc2cccc(Cl)c2)nc1C	20
COc1ccc(CN2CCc3cc(OC)c(OC)cc3C2)cc1O	11
CCOc1ccc(CCNC(=O)c2cc(C)nn2-c2ccccc2)cc1	16
Cc1c(CN2CCC(CO)(CC3CCCCO3)CC2)cnn1C (stereo unspecified)	7
NC(=O)CC(NC(=O)c1ccc(Br)cc1)c1ccc(NCc2ccc(F)cc2)c([N+](=O)[O-])c1 (stereo unspecified)	16
Oc1ccc(/C=N\Nc2nncc(-c3ccccc3)n2)cc1	28
c1ccc2c(c1)CCN(C1=Nc3cccc4cccc1c34)C2	8
Cc1cc(C(=O)NC2CCCCC2)on1	20
CC1(C)CCc2cc(-c3ccn(S(=O)(=O)c4ccccc4Cl)n3)ccc2O1	18
COCCN(C(=S)Nc1ccc(C)cc1)C(C)c1ccco1 (stereo unspecified)	18
S=c1[nH]c2ccccc2n2cccc12	16
O=C(CNC(=O)c1ccco1)N=Nc1c(O)n(CCc2ccccc2)c2ccccc12	25
Cc1ccc2c(C(=O)CSc3ccccc3)c(C)[nH]c2c1	17
CN(Cc1ccccc1)CC(O)COc1ccc(CNCc2nccn2C)cc1 (stereo unspecified)	3
Cc1nc2ccccc2c(=O)n1NC(=O)c1ccccc1[N+](=O)[O-]	10
Cc1ccc(C(=O)NC2CC3CCC(C2)N3Cc2ccco2)cc1 (stereo unspecified)	16
O=C(Nc1cccc(S(=O)(=O)N2CCOCC2)c1)c1cn(-c2ccccc2)nc1-c1ccccc1	6
CC(=O)c1cccc(CN2CCN(CC(C)C)C(CCO)C2)c1 (stereo unspecified)	-22
COC(=O)CSc1nc2ccccn2c(=O)c1C=O	24
Cc1nn(CCCC(=O)Nc2cc(Oc3ccc(F)cc3)cc([N+](=O)[O-])c2)c(C)c1[N+](=O)[O-]	9
O=c1[nH]cnc2[nH]ncc12	7
Cc1cc(NC(=O)COC(=O)[C@@H](NS(=O)(=O)c2ccccc2)C(C)C)no1	24
COc1ccc(C2CCCN2C(=S)Nc2ccc(C)cc2Cl)cc1OC (stereo unspecified)	14
CCC1(c2ccc(F)cc2)NC(=O)N(CC(=O)Nc2ccc(S(N)(=O)=O)cc2)C1=O (stereo unspecified)	12
CC1=CC2=NC(=O)/C(=C\c3cccn3CCOc3ccccc3C)C(=N)N2O1	2
O=C(COC(=O)/C=C/c1ccc([N+](=O)[O-])cc1)NCc1ccco1	22
Cc1ccc(C(=O)N/C(=C\c2ccc(C)o2)C(=O)O)cc1	15

Compounds above that have a nitro group on carbon:
SMILES	Biofilm kill mix
Cc1cc(NC(=O)COc2cccnc2[N+](=O)[O-])no1	-10
NC(=O)CC(NC(=O)c1ccc(Br)cc1)c1ccc(NCc2ccc(F)cc2)c([N+](=O)[O-])c1 (stereo unspecified)	16
Cc1nc2ccccc2c(=O)n1NC(=O)c1ccccc1[N+](=O)[O-]	10
Cc1nn(CCCC(=O)Nc2cc(Oc3ccc(F)cc3)cc([N+](=O)[O-])c2)c(C)c1[N+](=O)[O-]	9
O=C(COC(=O)/C=C/c1ccc([N+](=O)[O-])cc1)NCc1ccco1	22

Entries above that have an NH in an aromatic ring:
SMILES	Biofilm kill mix
S=c1[nH]c2ccccc2n2cccc12	16
Cc1ccc2c(C(=O)CSc3ccccc3)c(C)[nH]c2c1	17
O=c1[nH]cnc2[nH]ncc12	7

(continued)
SMILES	Biofilm kill mix
CCOc1cc(/C=N/n2c(C)nnc2C)ccc1O	14
O=C(c1ccco1)N1CCN(C(=O)c2cccc3c2C(=O)N(C2CCCCC2)C3)CC1	18
CCOc1cc(/C=N/NC(=O)CN2CCCCC2)ccc1OCc1cccc(Cl)c1	17
COc1ccc(/C=C2/SC(=O)N(CCC(=O)Nc3ccc(C)cc3)C2=O)cc1OC	14
CCOC(=O)CCn1cnc2ccc([N+](=O)[O-])cc2c1=O	8
O=C(CNC(=O)c1ccccc1F)NC1CC1	8
Cc1cc(OCCCCn2ccnc2)cc(C)c1Cl	13
O=C(Nc1nc2ccccc2n1CCN1CCOCC1)c1ccc(COc2ccccc2Br)o1	-2
CCCCOP(=O)(c1ccc(N(C)C)cc1)C(O)c1ccc(OC)c(OC)c1 (stereo unspecified)	7
NS(=O)(=O)c1cccc(NC(=O)CSc2nnnn2-c2ccccc2)c1	16
O=C(CCl)Nc1ccccc1C(=O)c1ccccc1	-2
O=C(/C=C/c1ccc(Br)o1)Nc1nnc(C2CC2)s1	14
CC(C)(C)c1ccc(OCCCNC2CCCC2)cc1	16
CN(C)c1ccc(Nc2c3c4c(cccc4n(C)c2=O)C(=O)c2ccccc2-3)cc1	17
Nc1nc(SCc2ccccc2Cl)ns1	16
O=C(NCCN1CCOCC1)C1CCN(S(=O)(=O)N2CCCC2)CC1	7
COc1ccc(-c2cc(C(F)(F)F)nc(SCC(=O)NCc3cccs3)n2)cc1OC	11
CCc1cccc(C)c1NC(=O)CCCSc1nc2ccccc2s1	-1
COc1cc(CN2CCC(CO)(Cc3cccc(C(F)(F)F)c3)CC2)ccc1F	0
O=C(CNC(=O)c1cccc(Cl)c1)N/N=C/C=C/c1ccccc1	13
CC(C)N1C/C(=C/c2cccnc2)C(=O)/C(=C/c2cccnc2)C1	9
c1ccc(Cn2nc(-c3ccccc3)nc2-c2ccccc2)cc1	12
O=C(NCCCn1ccnc1)C(=O)Nc1ccccc1	11
C=CCn1c(=O)c(C(C)=O)cn(N(C)c2ncc(C(F)(F)F)cc2Cl)c1=O	6
C=CCNC(=S)N/N=C/c1ccc(C(F)(F)F)cc1	18
OCCC1CN(Cc2cccn2-c2ccccn2)CCN1C1CCCC1 (stereo unspecified)	12
Cc1cc(C)c(NC(=S)NC(NC(=O)c2ccccc2)C(Cl)(Cl)Cl)c(C)c1 (stereo unspecified)	4
O=S1(=O)NC[C@]23C[C@H](c4ccc(F)cc4)[C@@H](C[C@@H]21)O3	6
Nc1ccc2oc(C3CCCCC3)nc2c1	3
O=C(Nc1ccc2c(c1)OCO2)c1cnc2n(c1=O)CCS2	9
Cc1ccc2[nH]c(=O)c3cc(C(=O)NCC4CCCO4)sc3c2c1 (stereo unspecified)	-1
CCN(c1ccccc1)S(=O)(=O)c1ccc(C(=O)Oc2ccc(C(C)=O)cc2)cc1	18
Cc1ccccc1-c1nc(P(=O)(c2ccccc2)c2ccccc2)c(N2CCOCC2)o1	10
COC(=O)CCCC(=O)N1CCCC(C(=O)c2ccc(OC)cc2C)C1 (stereo unspecified)	23
CCc1ccccc1NC(=O)COc1cccc2ccc(C)nc12	21
Cc1ccc(Nc2cc(=O)[nH]c(=O)[nH]2)cc1Cl	23
CC(=O)NC(CC(=O)N(C)Cc1cccc(Cl)c1Cl)c1ccccc1 (stereo unspecified)	8
CCOc1ccccc1C(=O)Nc1nnc(COC)s1	13
CCCn1c(SCC(=O)Nc2ccc3c(c2)CCC3)n[nH]c1=O	12
O=c1c2ccccc2nnn1CSc1nnnn1-c1ccc(O)cc1	17
Cc1cccc(-n2c(C)cc(/C=C3\C(=N)N4N=C(CC(C)C)SC4=NC3=O)c2C)c1	10
COc1ccc(Cc2nc(-c3ccncc3)no2)cc1	-2
O=C(Nc1ccc(F)cc1F)NC1CCN(S(=O)(=O)c2ccc(F)cc2)CC1	-10
COc1cc(CNC2CCCCC2)c(Br)cc1OC1CCCC1	15
CCOC(=O)NC(=O)/C(N=Nc1ccc(C(F)(F)F)cc1)=C(\C)O	5
CCOc1ccccc1Cn1c(=O)sc2ccccc21	4
O=C(N/N=C/c1ccc(Br)cc1)c1ccc(Br)o1	16
O=C(CSCCO)Nc1ccc([N+](=O)[O-])cc1	10

An excerpt of these results, field by field.
> Cc1cccc(-n2c(C)cc(/C=C3\C(=N)N4N=C(CC(C)C)SC4=NC3=O)c2C)c1
  Biofilm kill mix: 10
> O=C(Nc1ccc(F)cc1F)NC1CCN(S(=O)(=O)c2ccc(F)cc2)CC1
  Biofilm kill mix: -10
> CCOc1ccccc1Cn1c(=O)sc2ccccc21
  Biofilm kill mix: 4

Going on with the list.
SMILES	Biofilm kill mix
CN(C[C@H](CC1CCCCC1)N(C[C@H](Cc1ccccc1)N(CCc1ccccc1)N=O)N=O)N=O	26
O=C(NC(=S)Nc1ccc2c(c1)C(=O)c1ccccc1C2=O)c1ccc(F)cc1	13
CN(CCC#N)CC(=O)Nc1ccc(S(N)(=O)=O)cc1	4
Cc1ccc(S(=O)(=O)N(Cc2ccc(Cl)cc2)c2ccccc2C(=O)NCc2cccnc2)cc1	12
O=C(NNC(=S)Nc1ccccc1)Nc1ccccc1	-31
Cc1ccc(CN2C(=O)N/C(=C/c3ccc4c(c3)n(C)c(=O)n4C)C2=O)cc1	13
CCCOc1ccc(C(=O)NCCc2ccccc2)cc1	11
Cc1ccccc1OCC(O)Cn1nnc2ccccc21 (stereo unspecified)	-5
Cc1cccc(OCC2CCCN(Cc3nc(C4CC4)no3)C2)c1 (stereo unspecified)	-5
CCOC(=O)c1c(NC(=O)CN2C(=O)NC3(CCCCC3C)C2=O)sc(C)c1C (stereo unspecified)	15
COc1cc2c(cc1OC)CN(CC(=O)NC(=O)NCc1ccccc1)CC2	-1
CC(=O)Nc1ccccc1C(=O)C(=O)Nc1cccc(C(=O)NCc2ccccc2)c1	17
CCN(Cc1ccncc1)Cc1cn(C)nc1-c1ccc(Oc2ccccc2)cc1	16
COc1ccc(C(=O)N/N=C/c2ccccn2)cc1OC	6
O=C(CN1C(=O)C(=O)N(Cc2ccco2)C1=O)NC1CCCCC1	5
NC(N)=N/N=C/c1cccc(Cl)c1Cl	0
CCCOc1nc(SCCC)nc2c1cnn2-c1ccccc1	8
COc1ccc(O)c(/C=N/Nc2nc3ccccc3[nH]2)c1	6
NC(=O)C1CCN(CC(=O)Nc2ccccc2Sc2ccc(Cl)cc2)CC1	14
NC(=O)NC(=O)COC(=O)c1ccccc1OCc1ccc(F)cc1	25
COc1ccc(NC(=O)c2nc[nH]c2C(=O)N2CCN(C(=O)OC(C)(C)C)CC2)cc1	2
CC(CCc1ccccc1)NCC(O)c1ccc(O)c(C(N)=O)c1 (stereo unspecified)	14
CCCCSCCCNC(=S)Nc1ccccc1C	6
CN(c1ccccc1)S(=O)(=O)c1cccc(C(=O)NCCc2ccc(O)c(O)c2)c1	16
CC[C@@H](C)CN1C(=O)N[C@@H](CCc2ccccc2)C(C(C)=O)=C1C	18
C[n+]1cccc2ccc3c(c21)OC(N)=C(C#N)C3c1ccccc1 (stereo unspecified)	10
Cc1cc(C)nc(-n2ncc3c2CC(c2ccc(C(C)C)cc2)CC3=O)n1 (stereo unspecified)	18
Cc1cccnc1CCNC(=O)CCc1nnc(CCc2ccccc2)o1	13
CCc1cc2c(=O)c(-c3nc4ccccc4n3C)coc2c(CN2CCOCC2)c1O	10
CCCCOc1cccc(C(=O)NC(=S)Nc2cccc(NC(=O)c3ccccc3Cl)c2)c1	21
O=C(N/N=C/C=C/c1ccccc1)C1CC1c1ccccc1 (stereo unspecified)	11
O=C1CCCCc2sc(Br)c([N+](=O)[O-])c2N1	34
CCCCc1noc(-c2c(-c3ccccc3Cl)noc2C)n1	0
COc1ccc(N/N=C(/C)c2cnnc(-c3ccccc3)n2)cc1	16
Cc1nc2ccccc2c2nc(NC(=O)C(F)(F)F)nn12	14
CCOC(=O)C1=C(C)NC(=S)N(C=O)C1c1ccccc1 (stereo unspecified)	7
COCCC(=O)NNS(=O)(=O)c1ccc(Cl)cc1	1
CCCCNS(=O)(=O)c1ccc2nc(SCC(=O)Nc3ccccc3Cl)[nH]c2c1	7
COc1ccccc1N/C(N)=N/c1nc(C)cc(C)n1	5
O=C(COc1cccc2cccnc12)N/N=C1\SCC(=O)N1Cc1ccco1	18
Cc1noc2ncnc(Oc3ccc(C(C)(C)C)cc3)c12	4
O=C(COc1cccc2ccccc12)NCc1cccnc1	13
CC1CN(Cc2ccccc2)C(C)CC1O (stereo unspecified)	-5
Cn1c(=O)c2c(nc(SCCN3CCOCC3)n2Cc2ccccc2)n(C)c1=O	11
O=C(O)C1CCN(S(=O)(=O)c2ccc(N3CCOCC3)c([N+](=O)[O-])c2)CC1	7
Cc1c(NC(N)=O)c(=O)n(-c2ccccc2)n1C	14
CCOC(=O)C1(Cc2ccccc2C(F)(F)F)CCN(CC2CC2)CC1	28
COc1ccc(C(=O)NC(C(=O)NCCc2ccc3c(c2)OCCO3)C(C)C)cc1 (stereo unspecified)	19
CN1CCc2c(sc3c2C(=O)NC(/C=C\c2ccccc2)N3)C1 (stereo unspecified)	19
CSc1ccccc1C(=O)Nc1cc(C)ccc1C	13
CCN1C(=O)N(S(=O)(=O)c2ccc(C)cc2)[C@@H](c2ccccc2)C(C(=O)OC)=C1C	18
C/C(=N\NC(=O)CSc1ncccn1)c1ccc2c(c1)OCCO2	29

Only part of the results is shown; count on the stated rates, not on these rows.
